Assay outcomes as filed in PubChem.
A647 autofl: compound autofluorescence in A647 spectral region; max dye-equivalent concentration, M; AID 592; Compound fluorescence, A647 channel (570/671 nm), Tris buffer; 59,000 tested, under 10 active; active means above 1 µM dye equivalent; inconclusive means 0.1 to 1 µM; inactive means 0.1 µM or less;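 note: values scaled relative to a standard on each plate; highest value over a series up to 38 µM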
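Compounds pinned into 100 mM Tris pH 8.0, 15 min at room temperature, then read with 570 nm excitation/671 nm emission filters. Fluorescence normalized to an on-plate six-point Alexa 647 standard curve, giving dye-equivalent concentration per compound concentration.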
TSHR agonist: TSH receptor (human) agonism; P16473; HEK293-CNG-TSHR cells (CNG channel as cAMP sensor), membrane potential dye, cAMP; Potency, µM (doses to about 57.1 µM), for inactives: top-dose activation, actives largely listed as activators; 0.48% of 73,000 active; AID 926; active = well fitted activation curve of enough size with the parental cells flat; inconclusive = any curve in the parental cells; inactive = parental cells flat and receptor cells flat or falling; note: potency is the fitted concentration of half-maximal effect; % of control where 0% means no effect; weak receptor curves with flat parental cells got no call and are not listed
Target sequence (P16473 whole entry, looked up): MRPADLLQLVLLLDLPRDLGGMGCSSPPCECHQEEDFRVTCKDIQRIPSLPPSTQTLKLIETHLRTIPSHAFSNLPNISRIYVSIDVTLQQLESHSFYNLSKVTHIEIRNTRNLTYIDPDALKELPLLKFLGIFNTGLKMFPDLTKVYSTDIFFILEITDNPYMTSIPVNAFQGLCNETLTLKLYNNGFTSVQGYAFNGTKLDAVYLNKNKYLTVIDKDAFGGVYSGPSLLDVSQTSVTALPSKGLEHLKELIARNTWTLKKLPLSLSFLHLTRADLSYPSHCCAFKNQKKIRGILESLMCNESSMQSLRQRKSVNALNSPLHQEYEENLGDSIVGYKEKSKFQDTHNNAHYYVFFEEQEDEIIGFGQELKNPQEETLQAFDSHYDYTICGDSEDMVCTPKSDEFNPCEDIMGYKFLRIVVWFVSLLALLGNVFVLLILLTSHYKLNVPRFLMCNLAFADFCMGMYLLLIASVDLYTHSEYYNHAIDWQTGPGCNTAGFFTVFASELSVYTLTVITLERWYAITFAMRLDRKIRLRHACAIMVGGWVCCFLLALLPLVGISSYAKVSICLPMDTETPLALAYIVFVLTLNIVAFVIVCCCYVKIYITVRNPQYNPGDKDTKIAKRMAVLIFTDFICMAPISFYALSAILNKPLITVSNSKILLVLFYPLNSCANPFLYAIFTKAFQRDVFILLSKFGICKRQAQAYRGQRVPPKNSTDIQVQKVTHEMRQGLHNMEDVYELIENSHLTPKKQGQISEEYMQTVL
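HEK 293 cells stably expressing TSHR and a modified CNG channel, with CNG-only parental cells as counterscreen, were preloaded 60 min at room temperature with membrane potential dye containing 100 uM RO 20-1724. Compound exposure was 30 min, and depolarization was read as fluorescence at 590 nm.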
A488 fluor: compound autofluorescence in A488 spectral region; compound autofluorescence, A488 spectral region, dye equivalency; active compounds read high; max dye equivalency, M; 0.1% of 59,000 active; AID 591; active = above 10 nM dye equivalent; inconclusive = 1 to 10 nM; inactive = 1 nM or less; about half of its hits are not listed in these tables;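 note: highest value over a series up to 38 µM; compound alone in buffer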
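Read-out: relative fluorescence at 480/540 nm, expressed as Alexa 488 dye-equivalent concentration from a six-point A488 standard included per plate. Conditions: 100 mM Tris, pH 8.0; 15 min incubation, room temperature.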
AID923: qHTS Assay for Allosteric/Competitive Inhibitors of Caspase-1: Spectroscopic Profiling in AFC Spectral Region. 1.1% of 75,000 active. compound fluorescence, AFC spectral region (405/520 nm); almost no hit is shown here. Potency, µM (series often up to 57.5 µM), for the others: at the highest dose fluorescence increase, hits mostly activators; active = well fitted activation curve with a large enough effect; inconclusive = small, poorly fitted or top-dose-only effect;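 note: potency is the fitted concentration of half-maximal effect; 0% is about no effect; scaled to a free AFC standard on each plate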
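Baseline compound fluorescence (AFC region, 405 nm ex/520 nm em) taken from the intercept of kinetic reads with 50 nM caspase-1 and 5 uM Ac-WEHD-AFC; normalized to an on-plate AFC standard curve; compounds titrated up to 57 uM.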
Resorufin autofl: compound fluoresces in the resorufin spectral region; max dye-equivalent concentration, M; Compound fluorescence, resorufin region 547/598 nm, buffer; active compounds read high; 0.04% of 59,000 active; AID 588; active = above 10 nM dye equivalent; inconclusive = 1 to 10 nM; inactive = 1 nM or less; a few of its hits are not listed in these tables; note: highest value over a series up to 38 µM
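Dye-equivalent concentration values derive from comparing each well's 547/598 nm fluorescence against resorufin standards included on every plate. Incubation was 15 min at room temperature in 100 mM Tris, pH 8.0.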
The depositor's hits bear a star; i = inactive; ? = inconclusive; / = no result given; [ ] = remark or other dose.

SMILES	A647 autofl	TSHR agonist	A488 fluor	AID923	Resorufin autofl
CCOc1ccc(CCNC(=O)C2CCCN(c3nn4c(=O)cc(C)nc4s3)C2)cc1OCC (stereo not drawn)	2.9e-09	2.5%[11.4 µM]	i	-0.4%	i
CCC1CCCCN1c1nc(-c2cccc(OC)c2O)nc2ccccc12 (stereo not drawn)	1e-09	/	i	/	i
Cc1cc(OCC(=O)Nc2ccc(S(=O)(=O)N3CCN(C)CC3)cc2)cc(C)c1Cl	1e-09	26.5%	i	-1.5%	i
COc1ccc2cc(C(c3nnnn3Cc3ccc(F)cc3)N3CCCCCC3)c(=O)[nH]c2c1 (stereo not drawn)	6.1e-09	2.9%	i	14.4%	i
COc1cccc(-c2nc(CS(=O)CC(=O)NCCCOC(C)C)c(C)o2)c1 (stereo not drawn)	8.2e-09	1.8%	i	0.9%	i
CCCS(=O)(=O)N1CCCC(C(=O)NCCc2ccc(OC)c(OC)c2)C1 (stereo not drawn)	7.3e-09	?	i	0.1%	i
COc1ccc(C)cc1C(=O)C1CC(C(=O)O)C(C)(C)C1C (stereo not drawn)	2.45e-08	-0.3%	i	1.1%	i
COc1ccccc1N1CCN(CCc2n[nH]c(=S)n2-c2ccccc2)CC1	/	7.5%	/	-0.7%	/
Cc1cc(-n2c(C)cc(C(=O)CN3C(=O)NC4(CCCCC4C)C3=O)c2C)no1 (stereo not drawn)	1.1e-09	-1.7%	i	-1.3%	i
COc1ccc(S(=O)(=O)N2CCC(n3cnc4cc(C(F)(F)F)ccc43)CC2)cc1	3.5e-09	0.9%	i	-2.1%	i
O=C1CCCC2=C1C1(CCCC1)N=C(Nc1nc3ccccc3o1)N2	2.14e-08	-30.3%[inhibitor]	i	1.1%	i
O=C(Nc1cccc(Cl)c1)C1CCCN(S(=O)(=O)c2cnc[nH]2)C1 (stereo not drawn)	/	6.2%	/	0.4%	/
CCOc1ccc(NCCC(=O)c2ccc3c(c2)OCO3)cc1	5e-09	/	i	-0.9%	i
CSc1nnnn1CCn1nnnc1SC	1.96e-08	4.1%	i	0.2%	i
COC(=O)C(C)Sc1nnc(Cc2cc(=O)[nH]c(=O)[nH]2)n1-c1ccc(Cl)cc1 (stereo not drawn)	/	-1.2%	/	-4.2%	/
O=C(O)CN(c1ccccc1F)S(=O)(=O)c1ccccc1	/	?	/	-1.1%	/
c1ccc2c(c1)[nH]c1c(N3CCSCC3)ncnc12	3.62e-08	/	i	/	i
Cc1ccc(N(C(=O)c2ccc3c(c2)OCO3)C2C=CS(=O)(=O)C2)cc1 (stereo not drawn)	3.04e-08	3.3%[11.4 µM]	i	-1.0%	i
CCOC(=O)Cc1csc(NC(=O)COc2ccc(OC)cc2)n1	/	26.5%	/	0.8%	/
COc1ccc(NC(=O)c2ccco2)cc1N	1.48e-08	0.0%	i	0.3%	i
Cc1ccc(C)c(/C(O)=C2\C(=O)C(=O)N(Cc3cccnc3)C2c2cccnc2)c1 (stereo not drawn)	2.73e-08	24.5%	i	-1.4%	i
Nc1c(C(=O)NCC2CCCO2)c2nc3ccccc3nc2n1/N=C/c1ccncc1 (stereo not drawn)	2.5e-09	/	i	/	i
CC(=O)N(CC1CCCO1)c1nnc(-c2cnccn2)s1 (stereo not drawn)	4.3e-09	-6.3%	i	0.1%	i
COCCNC(=O)Cn1c(=O)n(Cc2ccc(C(=O)NCc3ccco3)cc2)c(=O)c2ccccc21	1e-09	-2.6%[11.4 µM]	i	-1.2%	i
NS(=O)(=O)c1ccc(CCNC(=O)CCCC2=NS(=O)(=O)c3ccccc3N2)cc1	3.3e-09	-0.4%	i	0.1%	i
O=C(Nc1cccc(F)c1)N1CC2(CCN(C(=O)c3ccco3)CC2)C1	1e-09	4.3%	i	-2.1%	i
Cc1cc(NC(=O)c2ccc3c(c2)C(=O)N(CCC(C)C)C3=O)no1	1.55e-08	-9.4%	i	-2.6%	i
O=C(CSc1nc(-c2ccco2)cc(C(F)(F)F)n1)Nc1ccc(C(=O)N2CCCCC2)cc1	/	-1.0%	/	1.5%	/
CN(C)S(=O)(=O)c1cccc(C(=O)N(Cc2ccc(F)cc2)Cc2ccco2)c1	1.04e-08	?	i	-1.1%	i
COc1cccc(-c2cncnc2NCc2ccccc2OC)c1	4.6e-09	?	i	0.8%	i
NC(=O)COC(=O)c1ccc(Oc2ccccc2)cc1	1e-09	9.2%	i	2.8%	i
COc1cccc(-c2nnc(NC(=O)c3ccc(S(=O)(=O)N4CCOCC4)cc3)o2)c1	1e-09	2.8%	i	-1.2%	i
Nc1[nH]c(=S)[nH]c(=O)c1-c1ccccc1	4.5e-09	0.7%	i	-1.0%	i
Cc1ccccc1N1C(=O)N(c2cccc(C(F)(F)F)c2)C2CS(=O)(=O)CC21 (stereo not drawn)	1.37e-08	-7.1%	i	0.2%	i
Cc1oc(-c2ccccc2F)nc1CS(=O)(=O)CC(=O)N1CCOCC1	/	?	/	1.9%	/
Cc1ccc(C=Nc2ccc(N(C)C)cc2)o1	/	-31.3%[inhibitor]	/	0.6%	/
O=C(CCSc1ccccc1)NCCN1CCOCC1	6.18e-08	-0.5%	i	1.4%	i
CCOc1ccc(N(CC(=O)NC(C)(C)C)S(=O)(=O)c2c(C)noc2C)cc1	/	12.3%	/	2.4%	/
Cc1ccc(OC(=O)c2cccc(C(=O)Oc3ccc(C)cn3)n2)nc1	5.21e-08	-0.2%	i	0.1%	i
CCOc1ccc(CC(=O)Nc2c(C(N)=O)oc3ccccc23)cc1OCC	2.4e-09	-6.0%	i	1.2%	i
CCn1c(=O)c(C(=O)NCc2ccccn2)c(O)c2ccccc21	/	?	/	1.3%	/
COc1cccc(-c2cc(C(=O)NCc3ccco3)no2)c1	1.63e-08	6.7%	i	0.1%	i
COc1cc2c(cc1OC)CN(C(=O)CSc1nnc3scc(-c4ccccc4)n13)CC2	/	9.9%	/	1.1%	/
O=C(Nc1cccc(C(F)(F)F)c1)c1cccnc1N1CCCC1	2.7e-09	8.6%	i	-2.3%	i
COc1ccc(-n2c(COc3ccccc3)nnc2SCc2ccc(C#N)cc2)cc1	1.07e-08	14.6%	i	0.9%	i
O=S(=O)(c1cccs1)N1CN(CC2CCCO2)c2nc3ccccc3nc21 (stereo not drawn)	1e-09	25.1µM*	i	2.3%	i
CCOCCn1cnc2sc(C(=O)Nc3nc(C)c(C(=O)OCC)s3)c(C)c2c1=O	1e-09	0.3%[11.4 µM]	i	-1.5%	i
Cc1nnc(C)n1/N=C/c1ccccn1	/	-0.6%	/	1.4%	/
O=C(O)c1cc(-c2ccc(-c3ccccc3)cc2)nc2cc3ccccc3cc12	4.2e-09	-1.9%[11.4 µM]	i	-2.3%[11.5 µM]	i
O=C(CN1CCN(c2ccccc2)CC1)Nc1nccs1	3.7e-09	4.1%	i	0.6%	i
O=C(NCc1ccc(Cl)cc1)c1cc2c(nc3sccn32)s1	1.83e-08	5.5%	i	3.5%	i
COc1ccc(NS(=O)(=O)c2ccc(OC)c(OC)c2)cc1OC	/	3.2%[11.4 µM]	/	-3.2%	/
O=C(CSc1nc(-c2ccco2)cc(C(F)(F)F)n1)Nc1ccc2c(c1)OCO2	1e-09	?	i	-1.2%	i
Nc1ncnc2c1ncn2C1CCC(CO)C(O)C1 (stereo not drawn)	1e-09	1.0%	i	0.2%	i
COc1ccc(Cl)cc1NC(=O)C1CC(=O)N(c2ccc(F)cc2)C1 (stereo not drawn)	1.15e-08	-9.7%	i	-2.1%	i
Oc1ccc(CNc2ccc(F)cc2)c2cccnc12	1e-09	-6.6%	i	-0.4%	i
Clc1ccccc1Nc1ncnc2c1nnn2Cc1ccccc1	1e-09	?	i	1.8%	i
COc1ccc(C(=O)C(OC(=O)CNC(=O)c2ccco2)c2ccccc2)cc1 (stereo not drawn)	/	7.8%	/	3.3%	/
COC(=O)CSc1nnc(-c2ccco2)n1-c1ccc(C)cc1	2.96e-08	4.3%	i	0.9%	i
Cc1cc(C)n2c3c(c(C#N)c2n1)CC(C)(C)OC3	1e-09	/	i	/	i

Molecules listed so far that have two or more sulfur atoms:
SMILES	A647 autofl	TSHR agonist	A488 fluor	AID923	Resorufin autofl
CSc1nnnn1CCn1nnnc1SC	1.96e-08	4.1%	i	0.2%	i
NS(=O)(=O)c1ccc(CCNC(=O)CCCC2=NS(=O)(=O)c3ccccc3N2)cc1	3.3e-09	-0.4%	i	0.1%	i
COc1cc2c(cc1OC)CN(C(=O)CSc1nnc3scc(-c4ccccc4)n13)CC2	/	9.9%	/	1.1%	/
O=S(=O)(c1cccs1)N1CN(CC2CCCO2)c2nc3ccccc3nc21 (stereo not drawn)	1e-09	25.1µM*	i	2.3%	i
CCOCCn1cnc2sc(C(=O)Nc3nc(C)c(C(=O)OCC)s3)c(C)c2c1=O	1e-09	0.3%[11.4 µM]	i	-1.5%	i
O=C(NCc1ccc(Cl)cc1)c1cc2c(nc3sccn32)s1	1.83e-08	5.5%	i	3.5%	i

Next part
SMILES	A647 autofl	TSHR agonist	A488 fluor	AID923	Resorufin autofl
CCOC(=O)C(NC(C)=O)(Nc1ccc(S(=O)(=O)Nc2cc(C)nc(C)n2)cc1)C(F)(F)F (stereo not drawn)	2.47e-08	-1.1%	i	-0.5%	i
NC(=O)c1nsc(C(=O)N(CC(=O)NCc2ccc3c(c2)OCO3)C2CCCCC2)c1N	2.23e-08	2µM*	i	3.3%	i
COc1ccc(CNC(=O)Nc2cccs2)cc1OC	2.12e-08	1.1%	i	1.3%	i
CCCCCCCC/C=C\CCCCCCCC(=O)N[C@@H](CO)Cc1ccc(O)cc1	/	1.8%	/	-4.1%	/
COCCn1c(CN2CCN(c3ccccc3)CC2)nc2c1c(=O)n(C)c(=O)n2C	1.6e-09	13.2%	i	2.5%	i
CCCOc1ccc(Cc2nc(N)nc(N)n2)cc1	3.98e-08	11.1%	i	1.2%	i
ONC=Nc1cccc2nonc12	1.76e-08	0.1%	i	-1.9%	i
O=C(Nc1ccon1)C(Sc1ccccc1)c1ccccc1 (stereo not drawn)	1e-09	?	i	-0.6%	i
COc1ccc(OCCCON2C(=O)c3ccccc3C2=O)cc1	1e-09	17.4%	i	3.1%	i
COCCN(CCOC)c1nc(C)nc2c1nc(-c1ccccc1)n2CCN(C)C	/	?	/	0.2%	/
CCOc1ccc(-c2cc(C(=O)N/N=C/c3ccc(O)c(OC)c3)[nH]n2)cc1	/	-7.5%	/	-1.1%	/
Cc1cc(=O)n2c3c(cccc13)CCC2	8.9e-09	6.7%	i	-5.2%	i
CCCC(=O)Nc1ccc(-c2nc3cc(C)c(C)cc3o2)c(O)c1	/	3.7%	/	-0.1%	/
O=C1NC(c2ccccn2)Nc2sc3c(c21)CCC3 (stereo not drawn)	9.1e-09	-1.3%	i	6.6%	i
CCOc1ccccc1CNS(=O)(=O)c1ccc2c(c1)oc(=O)n2C	/	2.9%	/	1.7%	/
Cc1cc(NC(=O)CCCC(=O)Nc2ccc(F)cc2)no1	7.4e-09	18.4%	i	-0.4%	i
COc1ccccc1N1CCN(CCn2c(=O)[nH]c3c([nH]c4ccccc43)c2=O)CC1	/	-3.8%	/	-2.5%	/
COC(=O)c1c(NC(=O)c2ccco2)sc(C(=O)Nc2ccc(F)cc2)c1C	1e-09	?	i	4.4%	i
CCOC(=O)N1CCN(C(=O)CSc2ccc(Cl)cc2)CC1	/	17.4%	/	1.4%	/
C[C@@]12CC[C@@H]3[C@H](CCC4=CC(=O)CC[C@]43C)[C@@H]1CC[C@@H]2C(=O)Cn1cnc2c(=S)nc[nH]c21	1e-09	0.3%[11.4 µM]	i	1.2%[11.5 µM]	i
C=CCCCCCC	/	?	/	-0.1%	/
CCn1c(SCC(=O)c2c(N)n(C)c(=O)n(C)c2=O)nc2sc(C)c(C)c2c1=O	1.08e-08	18.0%[11.4 µM]	i	-0.3%	i
O=C(NCCCN1CCOCC1)C1(c2ccccc2)CCOCC1	1.14e-08	/	i	/	i

The list is partial; the hit share may differ from the screen's.
